Screens from PubChem.
KCNQ2 pot: potentiators of rat KCNQ2 potassium channel; CHO-K1 KCNQ2, FluxOR thallium flux fluorescence; stronger effect = higher value; Potassium voltage-gated channel subfamily KQT member 2 (Rattus norvegicus), O88943; 310,000 compounds, 0.54% hits; B-score at 10 µM;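 active = fluorescence ratio B-score at least 3 SD of library B-scores, with initial fluorescence B-score within 3 SD, cut at about 5.3 in these data; same plate scores as AID 2156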;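 note: B-score of peak minus minimum over baseline fluorescence ratio after K+ and Tl+ stimulus; positive B-score means potentiation of KCNQ2 with more thallium influx and brighter signal; only the inactives scoring about 0 or higher are listed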
Target sequence (O88943 whole entry, looked up): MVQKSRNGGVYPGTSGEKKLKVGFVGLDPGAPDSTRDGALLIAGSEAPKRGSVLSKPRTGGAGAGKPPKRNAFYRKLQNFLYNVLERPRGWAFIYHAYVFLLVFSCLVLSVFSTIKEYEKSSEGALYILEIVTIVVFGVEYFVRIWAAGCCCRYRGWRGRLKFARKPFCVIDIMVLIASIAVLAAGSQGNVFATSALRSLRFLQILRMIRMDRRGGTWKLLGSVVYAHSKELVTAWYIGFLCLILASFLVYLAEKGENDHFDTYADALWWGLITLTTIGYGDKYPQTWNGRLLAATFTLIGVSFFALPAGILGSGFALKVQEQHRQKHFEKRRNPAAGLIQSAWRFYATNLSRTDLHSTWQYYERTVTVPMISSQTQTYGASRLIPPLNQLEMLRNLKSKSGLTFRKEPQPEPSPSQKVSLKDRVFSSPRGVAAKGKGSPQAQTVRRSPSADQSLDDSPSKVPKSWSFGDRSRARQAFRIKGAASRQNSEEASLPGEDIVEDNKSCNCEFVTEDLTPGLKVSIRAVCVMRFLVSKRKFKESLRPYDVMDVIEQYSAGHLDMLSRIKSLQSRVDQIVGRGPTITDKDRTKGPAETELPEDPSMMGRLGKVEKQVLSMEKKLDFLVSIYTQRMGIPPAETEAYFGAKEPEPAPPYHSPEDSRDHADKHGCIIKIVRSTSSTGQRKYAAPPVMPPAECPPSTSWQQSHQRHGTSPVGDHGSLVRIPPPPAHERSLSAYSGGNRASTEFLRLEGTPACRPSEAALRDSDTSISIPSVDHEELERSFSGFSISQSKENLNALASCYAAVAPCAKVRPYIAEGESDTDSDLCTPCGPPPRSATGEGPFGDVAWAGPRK
KCNQ2 pot baseline: further read-out of KCNQ2 pot, marked with its call; B-score; compound at 10 µM; measured here: initial fluorescence intensity artifact check;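 brightness before thallium and not channel activity; 0 = typical well and far values either way flag optical interference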
Numbers without * were called inactive; & = joins results of further samples. This is a subset (hit frequency here may not be typical).

entry	smiles	KCNQ2 pot	KCNQ2 pot baseline
1	Nc1nc(NCCCN2CCOCC2)nc(Nc2ccc(F)cc2)c1[N+](=O)[O-]	0.46	1.3
2	CCOC(=O)c1cc(CC)sc1NC(=O)c1cc([N+](=O)[O-])ccc1N1CCOCC1	0.1	0
3	C/C(Cl)=C/Cc1c(C)[nH]c2ccc(C)cc2c1=O	1.2	1
4	COc1ccc(C(=O)[C@H]2[C@H]3C(=O)N(c4ccc(OC(C)=O)cc4)C(=O)[C@H]3C3C=CC=NN32)cc1 (stereo partly specified)	0.1	1.9
5	Oc1c(N=NC(=S)Nc2ccccc2F)c2ccccc2n1Cc1ccccc1Cl	1.7	0.18
6	CCOC(=O)c1nnn2c1nc(N1CCOCC1)c1ccccc12	0.78	0.62
7	C/C(CCc1ccc2c(c1)OCO2)=N\N=C1\NC(=O)CC(C(=O)Nc2ccc(Cl)cc2)S1 (stereo unspecified)	0.58	0.75
8	CCOC(=O)c1ccccc1NC(=O)CN1C(=O)CCS(=O)(=O)c2ccccc21	1.9	-1
9	Cc1nn(C)c(C(=O)N/N=C/c2ccc(Br)cc2)c1Cl	0.51	-2.2
10	Nc1nonc1N1CCCCC1	0.88	-0.04
11	COc1ccc(N2CCN(C(=O)c3cc(=O)c4ccc(C)cc4o3)CC2)cc1	2.1	0.66
12	CC(=O)Nc1ccc(NC(=O)CSc2nnc(-c3ccco3)n2Cc2ccco2)cc1	0.2	-1.9
13	CC(C)(C)c1nc(SCC(=O)NC2CCCC2)c2ccccc2n1	2.2	-0.42
14	COc1cc(S(=O)(=O)Nc2ccc3cn[nH]c3c2)ccc1Cl	0.4	0
15	O=C(Nc1cc(Cl)cc(Cl)c1)C1CCC(=O)N1Cc1ccccc1Cl (stereo unspecified)	1.2	1.3
16	COC(=O)Cn1cnc2scc(-c3ccc(C)c(C)c3)c2c1=O	0.62	1.2
17	COc1ccc(-c2nnc(SCC(=O)NC(=O)NCc3ccco3)o2)cc1	0.57	0
18	Cc1ncoc1C(=O)N1CCCC(N2CCN(c3ccccc3F)CC2)C1 (stereo unspecified)	0.71	-0.12
19	CCOc1ccc(OCCC(=O)NNC(=O)c2nn(C)c(=O)c3ccccc23)cc1	0.05	-1.2
20	S=C(NCCc1ccccc1)Nc1ccc(Cl)cc1	0.05	0.09
21	N#CCN1CCCC(C(N)=O)C1 (stereo unspecified)	0.82	-1.5
22	Nc1cc(C(F)(F)F)cc([N+](=O)[O-])c1N	0.72	-0.77
23	CS(=O)(=O)N1CCCC(C(=O)NCCc2ccc(Cl)cc2)C1 (stereo unspecified)	1.5	-0.92
24	COc1ccccc1Nc1ncnc2c1c(C)c(C)n2CCO	0.99	0.1
25	CCCCCCn1c(N)c(C#N)c2ccc([N+](=O)[O-])cc2c1=O	0.69	-0.74
26	O=S1(=O)[C@H]2C[C@@H]3C=C[C@@]2(CN1Cc1ccccc1F)O3	0.54	0.99
27	CN(CC(=O)Nc1ccc2c(c1)OCCO2)S(=O)(=O)c1cccc2cccnc12	1.4	-0.91
28	COC(=O)CSc1n[nH]c(-c2ccncc2)n1	0.64	-0.18
29	CC1(C)CC2CC(C)(CN2C(=O)c2cc(-c3ccccc3O)on2)C1 (stereo unspecified)	0.57	-0.64
30	O=C(CS(=O)(=O)c1ccccc1)Nc1ccccn1	0.47	-1
31	COc1cc(C(=O)NNC(=O)C2CC2)cc(OC)c1OC	0.38	-0.61
32	Fc1ccccc1N1CCN(CCCNc2ccc3nncn3n2)CC1	0.31	-1.8
33	CN1C(=O)NC(NC(=O)C2CCCCC2)(C(F)(F)F)C1=O (stereo unspecified)	0.03	-0.85
34	O=C(CSc1nnc(-c2c[nH]c3ccccc23)o1)N1CCCCC1	1.6	-1.1
35	COCCN(C(=O)CC1C(=O)NCCN1Cc1ccc(-c2ccccc2)cc1)C(C)C (stereo unspecified)	0.54	2.1
36	O=C(c1ccoc1)N1CCC2(CC1)Oc1ccc(Cl)cc1C(=O)C21CC(c2ccccc2)=NO1 (stereo unspecified)	1.1	0.19
37	CC(=O)Nc1ccc(NC(=O)C2CCCN(S(=O)(=O)c3ccc(-n4cnnn4)cc3)C2)cc1 (stereo unspecified)	0.13	-0.05
38	C=C(C)Cn1c(N2CCN(c3ccc(OC)cc3)CC2)nc2c1c(=O)n(C)c(=O)n2C	1.2	-1.2
39	CSCCCNC(=O)c1ccccc1OC1CCN(S(C)(=O)=O)CC1	0.45	-0.13
40	O=C(Nn1cnnc1)c1ccccc1F	0.57	-0.38
41	O=C(Nc1ccc(N2CCCCC2)c(Cl)c1)c1ccc(N2CCOCC2)c([N+](=O)[O-])c1	0.34	0.22
42	CCCCC(=O)Nc1ccc(C(=O)N2CCC(C(=O)OCC)CC2)cc1	0.11	-0.59
43	CCCCc1nc2cc(C(=O)NCc3cc(C)n(C)n3)ccc2o1	0.05	-0.31
44	Cc1ncc(S(=O)(=O)C(C)(C)C)c(N)n1	1.5	1.5
45	COc1cc(OC)cc(C(=O)Nc2ccc(S(=O)(=O)Nc3cc(C)nc(C)n3)cc2)c1	0.14	-0.79
46	OCCN(CCO)CC(O)COc1ccc(Br)cc1 (stereo unspecified)	0.12&0.89	-1.6&-1.2
47	CCOc1ccc(CN2CCCC(CO)(Cc3ccccc3F)C2)cc1 (stereo unspecified)	0.61	1.7
48	CC(=O)c1cnc(Nc2nc(C)c3ccc(C)cc3n2)nc1C	1.9	-1.5

Shown with values under each structure: three of the compounds above.
Sequence of screens: KCNQ2 pot | KCNQ2 pot baseline
43) CCCCc1nc2cc(C(=O)NCc3cc(C)n(C)n3)ccc2o1
 : 0.05 | -0.31
40) O=C(Nn1cnnc1)c1ccccc1F
 : 0.57 | -0.38
48) CC(=O)c1cnc(Nc2nc(C)c3ccc(C)cc3n2)nc1C
 : 1.9 | -1.5

The list continues:
entry	smiles	KCNQ2 pot	KCNQ2 pot baseline
49	O=C(CCNS(=O)(=O)c1ccc(Br)s1)NCc1ccccc1	1.2	1.2
50	Clc1cnc(Nc2cccnc2)c(Cl)c1	1.1	-1.7
51	O=C(c1ccco1)N1CCN(C(=O)c2ccc(COc3ccc(Cl)cc3Cl)o2)CC1	0.31	-0.43
52	CC(C)(C)c1cc(CN2CCOCC2)c(C(=O)O)o1	0.03	0.77
53	CCC(C)NS(=O)(=O)c1ccc(NC(=O)C(Sc2ccccc2)c2ccccc2)cc1 (stereo unspecified)	0.28	-0.83
54	CC(C)(C)NC(=O)C(c1ccccn1)N(C(=O)c1csnn1)C1CCCC1 (stereo unspecified)	0.23	0.1
55	O=C(c1ccc(Cl)nc1)c1cccs1	1.1	0.32
56	CCOC(=O)N1CCc2c(sc(NC(=O)CN3CCOCC3)c2C#N)C1	0.32	-0.43
57	COc1ccc(C(=O)C2CCCN(C(=O)c3noc4c3CCCC4)C2)c(C)c1 (stereo unspecified)	0.54	-1.5
58	CCN(CC)P(=O)(Nc1ccccc1Br)c1ccc(N(C)C)cc1NC(=O)c1ccco1 (stereo unspecified)	0.45	-0.94
59	CCCCN(CC)CCNS(=O)(=O)c1ccc2c(c1)oc(=O)n2C	1.7	0.57
60	CN1CCC(=NNc2ccc(S(=O)(=O)N3CCOCC3)cc2[N+](=O)[O-])CC1	1.3	-1.9

A run of entries from further up, as a working copy:
entry	smiles	KCNQ2 pot	KCNQ2 pot baseline
58	CCN(CC)P(=O)(Nc1ccccc1Br)c1ccc(N(C)C)cc1NC(=O)c1ccco1 (stereo unspecified)	0.45	-0.94
59	CCCCN(CC)CCNS(=O)(=O)c1ccc2c(c1)oc(=O)n2C	1.7	0.57
60	CN1CCC(=NNc2ccc(S(=O)(=O)N3CCOCC3)cc2[N+](=O)[O-])CC1	1.3	-1.9

Next entries:
entry	smiles	KCNQ2 pot	KCNQ2 pot baseline
61	N/C(=N\OC(=O)CC1CCCCC1)c1ccccc1	2.9	-0.38
62	CC#CCc1cc2ccccc2c(=O)o1	0.99	0.57
63	O=C(NC(=S)N1CCOCC1)c1ccccc1Cl	0.24	0.86
64	CS(=O)(=O)c1ccc2nc(NC(=O)CN3C(=O)NC4(CCCC4)C3=O)sc2c1	0.89	0.59
65	COC(=O)c1[nH]c2ccc(Cl)cc2c1NC(=O)c1ccccc1[N+](=O)[O-]	0.02	-0.17
66	COc1ccc(C2CC(=O)n3c(nc4ccccc43)S2)cc1OC (stereo unspecified)	0.96	0.49
67	Cn1c(SCC(=O)NCc2ccco2)nnc1-c1c[nH]c2ccccc12	0.96	-3.2
68	COCCC(=O)N1CCC(Oc2ccc(C(=O)NCCc3cnn(C)c3)cc2)CC1	1.4	-0.07
69	N#Cc1cc2c(nc1SCC(=O)Nc1sc3c(c1C#N)CCC3)CCCCCC2	0.67	-1.3
70	COCCNC(=O)C(c1cccs1)N(CCc1ccccc1)C(=O)Cn1nnc2ccccc21 (stereo unspecified)	0.55	2.6
71	CCOC(=O)c1c(NC(=O)c2nn(CC)cc2Br)sc(C)c1C	0.01	0.27
72	O=C(CSc1nnc(-c2c[nH]c3ccccc23)n1-c1ccc(F)cc1)NCc1ccco1	0.5	1.4
73	COc1ccc(CN2CCOCC2)cc1Br	0.87	-0.53
74	COc1ccc(NC(=O)COc2ccccc2F)cc1S(=O)(=O)N1CCCCC1	0.08	-0.25
75	O=C(NNC(=O)C1CCCO1)c1ccc(Cl)cc1 (stereo unspecified)	0.74	0.76
76	Clc1cccc(Cl)c1CON/C=N/c1ncnc2sccc12	1.1	-0.34
77	COc1cc(/C=C/C(=O)Nc2nc3ccc(S(=O)(=O)N(C)C)cc3s2)cc(OC)c1OC	1.7	-1.4
78	N#Cc1c(N2C(=O)C3C4C=CC(C4)C3C2=O)sc2c1CCC2 (stereo unspecified)	0.24	1.9
79	CNS(=O)(=O)c1cccc(C(=O)OCC(=O)NC2CCCC2)c1	2	-0.8
80	CCn1c(SCC(=O)N/N=C/C=C/c2ccco2)nnc1-c1ccccc1	0.25	-0.87
81	C/C(=N/OC(=O)c1c(-c2c(Cl)cccc2Cl)noc1C)c1cnccn1	0.02	-0.51
82	CC(Oc1ccc(Cl)cc1Cl)c1nc(-c2ccc(NC(=O)c3ccncc3)cc2)no1 (stereo unspecified)	0.01	-0.01
83	CCOC(=O)c1ccc(NC(=O)N2CCCCC2)cc1	0.05	0
84	CCC(CC)C(=O)NCCNC(=O)C(CC)CC	0.03	-0.98
85	O=[N+]([O-])c1ccc(-c2ccc(/C=N/n3cnnc3)o2)c(Br)c1	3	-1.8
86	CC(Sc1nnnn1C)C(=O)NC(=O)NC1CCCCC1 (stereo unspecified)	0.77	-0.08
87	CC1=Nn2c(nnc2-c2ccc(F)cc2)SC1	0.05	1.6
88	COc1cc(C(=O)NCC2CCCO2)cc(OC)c1OC (stereo unspecified)	0.86	-0.24
89	CCOC(=O)C(NC(C)=O)C(=O)Nc1ccc(C(C)C)cc1 (stereo unspecified)	0.56	0.17
90	Cc1c(CC(=O)N2CCN(C(=O)C3COc4ccccc4O3)CC2)c(=O)oc2c(O)c(O)ccc12 (stereo unspecified)	0.13	0.7
91	CC1CCN(S(=O)(=O)c2ccc(N/N=C(/C#N)C(N)=O)cc2)CC1	0.44	-2.6
92	COc1ccc(C(C(=O)NC(C)(C)C)N(Cc2cccs2)C(=O)CCC(=O)Nc2cc(C)on2)cc1 (stereo unspecified)	1.9	1.9
93	O=C(NCCCN1CCCC1=O)c1csc2ccccc12	0.01	-0.49
94	COCCNc1nc2nonc2nc1N1C[C@H]2CC[C@H]1C2	0.73	0.29
95	CCCNc1nc(NCC)nc(OC)n1	1	0.09
96	Cc1nc(NCc2ccccc2)sc1C(=O)Nc1ccccc1	0.02	1.2
97	CCC(CC)NC(=O)COC(=O)c1ccc(OCC(=O)Nc2ccccc2OC)c(OC)c1	0.14	4.3
98	O=[N+]([O-])c1cc(C(F)(F)F)cc([N+](=O)[O-])c1NCCCNc1ccc([N+](=O)[O-])c2cccnc12	0.28	-1.6
99	CCCn1c(NCc2ccco2)nc2c1c(=O)n(C)c(=O)n2C	1.1	0.45
100	COc1ccc(NC(=O)COC(=O)/C=C/C(=O)OCC(=O)Nc2ccc(OC)c(Cl)c2)cc1Cl	1.1	-0.48
101	Fc1ccc(-c2cc(C(F)(F)F)nc(NCc3cccs3)n2)cc1	0.91	0.65
102	COc1ccc(CCNC(=O)C(=O)N2CCCCC2)cc1OC	0.6	2.6
103	CCOC(=O)C1Cc2ccccc2CN1 (stereo unspecified)	1.1	-0.19
104	Cc1ccc(C(=O)N/C(=C\c2cccs2)C(=O)NCCCn2ccnc2)cc1	1.4	-0.07
105	COc1ccc(NC(=O)CC2Nc3cc(C)c(C)cc3NC2=O)c([N+](=O)[O-])c1 (stereo unspecified)	0.46	-1.3
106	O=C(NCc1ccccn1)C1COc2ccccc2O1 (stereo unspecified)	1.8	-0.9
107	CCN(CC)C(=O)COc1ccc2oc(-c3ccco3)cc(=O)c2c1	1.3	-0.24
108	COc1ccccc1CCC(=O)OCC(=O)Nc1cccc(S(=O)(=O)N2CCCCC2)c1	1.4	1.1
109	CCOc1ccc(Nc2nc(N(C)c3ccccc3)nc(N)c2[N+](=O)[O-])cc1	0.29	-0.15
110	O=C(NCCN1CCOCC1)c1c(O)nc2sccn2c1=O	0.81	0
111	COc1cccc2c1OCC(CN1CCN(Cc3ccccc3F)C(CCO)C1)=C2 (stereo unspecified)	0.1	-2.3
112	Cc1ccccc1OCC(O)Cn1c(NCc2ccco2)nc2c1c(=O)[nH]c(=O)n2C (stereo unspecified)	0.11	0
113	CC(C)(C)n1nc2c(c1NC(=O)c1c(F)cccc1F)CS(=O)(=O)C2	1.4	0.24

Some of these compounds in order of the KCNQ2 pot baseline value, ascending.
| # | SMILES | KCNQ2 pot baseline |
| --- | --- | --- |
| 109 | CCOc1ccc(Nc2nc(N(C)c3ccccc3)nc(N)c2[N+](=O)[O-])cc1 | -0.15 |
| 110 | O=C(NCCN1CCOCC1)c1c(O)nc2sccn2c1=O | 0 |
| 113 | CC(C)(C)n1nc2c(c1NC(=O)c1c(F)cccc1F)CS(=O)(=O)C2 | 0.24 |
